Bioassay records (PubChem)
HSD17B inh: qHTS Assay for Inhibitors of HSD17B4, hydroxysteroid (17-beta) dehydrogenase 4. recombinant HSD17B10, NADH fluorescence kinetic; many of its hits are not listed in these tables. Potency, µM (highest dose often 57.1 µM), without a hit: at the top dose activity change, negative = inhibition, actives largely listed as inhibitors. hit rate 7.6% among 75,000. 3-hydroxyacyl-CoA dehydrogenase type-2 (Homo sapiens), Q99714; active = well fitted inhibition curve with a large enough effect; inconclusive = small, poorly fitted or top-dose-only effect; inactive = no such curve, though single readings can be large or run the other way;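 note: the protocol describes HADH2 (HSD17B10) and not the HSD17B4 of the title; nearly all actives have a fitted effect of over 70% in size; most hits overshoot -100% by far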
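Enzyme plus compound, 15 min room temperature; substrate mix added (NAD+ 1 mM, beta-hydroxybutyryl-CoA 90 uM final); plates read kinetically for NADH fluorescence. HADH2 was His-tagged, E. coli-derived, 20 nM.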
Starred values were filed as active, the others as inactive; ? = inconclusive; & = joins results of further samples; [ ] = remark or other dose. % is set by controls: 0 for no effect and ±100 for the full control effect; potency is the fitted concentration of half-maximal effect. Some of the compounds tested; the hit share may differ from the screen's.

SMILES	HSD17B inh
CN(C)S(=O)(=O)c1cccc(C(=O)OCC(=O)Nc2ccccc2OC(F)F)c1	3%
O=C(C1=C(O)C(=O)N(CC2CCCO2)C1c1cccnc1)c1ccco1 (stereo unspecified)	-2%
CC(C(=O)NC1CCCC1)N(Cc1ccco1)C(=O)c1snc(C(=O)NC2CCCC2)c1N (stereo unspecified)	32µM*
CCOc1cc(N2CCOCC2)c(OCC)cc1NC(=O)Cc1ccc(OC)c(OC)c1	-2%
O=C(Nc1nnc(-c2ccccc2)o1)Nc1ccccc1Cl	?
CCOC(=O)N1CCN(C(=O)CCc2c(C)nc3c(c(C)nn3-c3ccc(C)c(C)c3)c2C)CC1	?
CC(=O)NC1CSCC1OC(C)=O (stereo unspecified)	13%
COC(=O)c1ccc(CN2[C@@H]3C[C@@H](O)CC[C@@H]3C[C@H]2C(=O)OC)cc1	6%
COc1ccc(C(=O)N2CCC3(CCN(C(=O)Nc4cccc(F)c4)CC3)CC2)cc1	3%
COc1ccc(CNC(=O)CN(c2cc(C)cc(C)c2)S(=O)(=O)c2c(C)noc2C)cc1	3%
CC(C)(C)c1ccc(Cn2nnc3c(=O)[nH]c(C4CCCN(C(=O)Cc5cccs5)C4)nc32)cc1 (stereo unspecified)	-12%
CC1=C(C(=O)Nc2ccc(F)cc2)C(c2cccc(C)c2)n2nc(CCCO)nc2N1 (stereo unspecified)	6%
O=C(CCS(=O)(=O)c1cccs1)NC1CCCCCC1	1%
Clc1ccc(-c2nnc(NC3=NCCCCC3)o2)cc1	4%
O=C(CCC(=O)c1cccs1)Nc1nnc(C2CC2)s1	1%
CC1(C)Cc2noc(N)c2C(C)(C)N1O	-2%
COc1ccc(-c2cc3nc4n(c(=O)c3s2)CCC4)cc1	13µM*
O=c1c2ccccc2c2ccccc2c(=O)n1-c1cc2c3ccccc3ccc2c2ccccc12	-2%[11.4 µM]
CC(C)CCn1c(=O)c2ccccc2n2c(COC(=O)c3ccc(S(=O)(=O)N(C)C)cc3)nnc12	1%
O=C(Nc1ccccc1C(=O)NCc1ccccc1)c1ccco1	2%
O=C(N1CCCCC1)C1(c2ccccc2)CCOCC1	-9%
O=C(Cn1c(=O)[nH]c2ccsc2c1=O)N1CCN(c2ccc(F)cc2)CC1	-4%
COc1ccc(N(CC(=O)Nc2cccc(C(=O)O)c2)S(=O)(=O)c2c(C)noc2C)cc1	11%
Cc1nnc(SCC(=O)Nc2ccc(S(=O)(=O)N3CCCC3)cc2)n1N	12%
CC1CCCC(NC(=O)CSc2ncccc2C(=O)O)C1C (stereo unspecified)	7%
O=C(Nc1cccc(-c2nc3cc(Cl)ccc3o2)c1)C1CCCO1 (stereo unspecified)	?
COC(=O)CN(c1cccc(C(C)=O)c1)S(C)(=O)=O	-1%
CC(C(=O)NCc1ccc2c(c1)OCO2)N(c1ccccc1)S(C)(=O)=O (stereo unspecified)	-4%
CCOC(=O)c1cc(CC)sc1NC(=O)COC	4%
CCc1[nH]nc2c1C(c1cccnc1)C(C#N)=C(N)O2 (stereo unspecified)	3%
CC(=O)c1c(N)n(C)c(=O)n(C)c1=O	-8%
Cc1ccc(S(=O)(=O)Cc2ccc(C(=O)N3CCN(Cc4ccccc4)CC3)o2)cc1	-23%
COc1ccccc1OCc1nc(Cc2ccc(Cl)cc2)no1	-3%
Cc1occc1-c1nnc(SCC(=O)N2CCOCC2)n1Cc1ccco1	5%
CCOc1ccc(NC(=O)CSc2n[nH]c(=O)n2-c2ccccc2)cc1	5%
COc1ccc(NS(=O)(=O)c2cccc(C(=O)O)c2)cc1	-4%
COc1ccc(NC(C)=O)cc1NC(=O)CN1CCN(CC(=O)Nc2ccc(Cl)cc2)CC1	1%
CCOC(=O)c1[nH]c(C)c(C(=O)N2CCc3ccccc32)c1C	2%
O=c1cc(C(F)F)oc2c1ccc1ccccc12	25µM*
C(=N\c1nc2ccccc2n1CCN1CCCCC1)/c1cccs1	12%
Cc1ccc(C)c(N2CCN(C(=O)c3cc4ccccn4n3)CC2)c1	0%
CN(C)c1nc2ccc(OCCN3CCCCC3)cc2s1	-7%
COC(=O)c1cccc(C(=O)Nc2ccc(C)cc2Br)n1	-8%
NC(=O)c1csc(-c2ccc(CO)o2)n1	-4%[11.4 µM]
CN1CCN(CCCNC(=O)Nc2cccc3ccccc23)CC1	32µM*
O=C(NCc1ccco1)c1nc2ccccc2s1	8%
CC1(C)CC(=O)C(C=NCCc2ccc(O)cc2)=C(O)C1	1%
CCn1nnc(NC(=O)c2cccc(-c3cc4ccccc4oc3=O)c2)n1	25µM*
COC(=O)c1cc(OC)c(OC)cc1NC(=O)c1cc(C)on1	-12%
COc1cc(NC(=O)Cn2nnc(-c3ccncc3)n2)cc(OC)c1	?
N#Cc1cccc(-c2cn(S(=O)(=O)c3ccc(Cl)cc3)nc2N)c1	1%
C=C(C)c1cccc(C(C)(C)NC(=O)N2CC(C)OC(C)C2)c1 (stereo unspecified)	16%
CC(=O)N1CCc2cc(Br)cc(S(=O)(=O)NCC3CCCO3)c21 (stereo unspecified)	4%
O=C(Nc1ccc(N2CCN(C(=O)c3ccco3)CC2)c(Cl)c1)c1c(F)c(F)c(F)c(F)c1F	2%
COC(=O)Cn1c(C)c(C(C)=O)c(C(C)=O)c1C	-8%
COc1c(C)cc(Br)cc1C(=O)Nc1ccc(N2CCN(S(C)(=O)=O)CC2)cc1	?
CCCOc1ccc(C(=O)Nc2ccc(N3CCN(C(C)=O)CC3)cc2)cc1	12%
OC1(c2cccc(C(F)(F)F)c2)CCN(c2ccc(-c3ccccc3)nn2)CC1	-2%
COC(=O)c1ccc2c(c1)nc(C)n2CCO	9%
CCOC(=O)c1sc(=NC(=O)c2ccc(OC)c(OC)c2)n(C)c1C	4%

(listing goes on)
SMILES	HSD17B inh
Cc1cccc(Nc2ccccc2C(=O)OCC(=O)N2CCOCC2)c1C	-13%
CN(C)c1ccc(O)c2c1C[C@H]1C[C@H]3[C@@H](N(C)C)C(=O)C(C(N)=O)=C(O)[C@]3(O)C(=O)C1=C2O	-1%[25.6 µM]
Cc1ccc(-n2c(SCC(=O)Nc3nccs3)nc3c(c2=O)SCC3)cc1	2%
Cc1nn(-c2ccccc2)c2c1C(c1ccncc1)C(C#N)=C(N)O2 (stereo unspecified)	-6%
CO[C@H]1COC(=O)CCC[C@@H](C)[C@H](OC)COC(=O)[C@@H](C)NC(=O)C/C=C\[C@@H]1C	2%[11.4 µM]
CCC/C=C(\CCC)C(NS(=O)(=O)c1cccc2cccnc12)c1ccc(C(=O)OC)cc1 (stereo unspecified)	2%
CC1(C)Cc2ccccc2-c2nnc(SCC(=O)Nc3ccc4c(c3)OCO4)n21	6%
NC(=O)CSCc1c(Cl)cccc1Cl	5%
COC(=O)[C@@]1(Cc2ccc(F)cc2)[C@H]2c3cc(C(=O)N4CCCC4)n(Cc4ccccc4)c3C[C@H]2CN1C(=O)c1ccccc1	6%
COC(=O)c1ccccc1NC(=O)c1cccc(NC(=O)c2ccc(Br)o2)c1C	2%
COc1ccccc1C(=O)C(O)c1ccccc1OC (stereo unspecified)	-6%
CCc1nc2c(cnn2-c2ccc(Cl)cc2)c(=O)n1-c1ccc(OC)cc1	-2%
CC(C)COC(=O)c1ccc(NC(=O)C2C3C=CC(C3)C2C(=O)O)cc1 (stereo unspecified)	16%
CCCS(=O)(=O)c1c(S(=O)(=O)CCC)c2ccccn2c1C(=O)OC	?
C[C@H](CCC(=O)NCC(=O)O)[C@H]1CC[C@H]2[C@H]3[C@@H](C[C@@H](O)[C@]12C)[C@]1(C)CC[C@H](O)C[C@@H]1C[C@@H]3O	-4%[25.6 µM]
Cc1nc2cnc(Oc3ccccc3)nc2n(-c2ccccc2)c1=O	-7%
CN1CCN(c2ncc3nc(CCc4ccccc4)c(=O)n(C)c3n2)CC1	20µM*
O=C(c1ccco1)N(Cc1ccco1)c1ccc(O)cc1	-1%
CCOc1nc(C)ccc1-c1noc(-c2ccccc2OC)n1	?
COc1cc(Cl)ccc1S(=O)(=O)n1nc(C)cc1C	1%

Copied from above (16 entries):
SMILES	HSD17B inh
Cc1cccc(Nc2ccccc2C(=O)OCC(=O)N2CCOCC2)c1C	-13%
CN(C)c1ccc(O)c2c1C[C@H]1C[C@H]3[C@@H](N(C)C)C(=O)C(C(N)=O)=C(O)[C@]3(O)C(=O)C1=C2O	-1%[25.6 µM]
Cc1ccc(-n2c(SCC(=O)Nc3nccs3)nc3c(c2=O)SCC3)cc1	2%
Cc1nn(-c2ccccc2)c2c1C(c1ccncc1)C(C#N)=C(N)O2 (stereo unspecified)	-6%
CO[C@H]1COC(=O)CCC[C@@H](C)[C@H](OC)COC(=O)[C@@H](C)NC(=O)C/C=C\[C@@H]1C	2%[11.4 µM]
CCC/C=C(\CCC)C(NS(=O)(=O)c1cccc2cccnc12)c1ccc(C(=O)OC)cc1 (stereo unspecified)	2%
CC1(C)Cc2ccccc2-c2nnc(SCC(=O)Nc3ccc4c(c3)OCO4)n21	6%
NC(=O)CSCc1c(Cl)cccc1Cl	5%
COC(=O)[C@@]1(Cc2ccc(F)cc2)[C@H]2c3cc(C(=O)N4CCCC4)n(Cc4ccccc4)c3C[C@H]2CN1C(=O)c1ccccc1	6%
COC(=O)c1ccccc1NC(=O)c1cccc(NC(=O)c2ccc(Br)o2)c1C	2%
COc1ccccc1C(=O)C(O)c1ccccc1OC (stereo unspecified)	-6%
CCc1nc2c(cnn2-c2ccc(Cl)cc2)c(=O)n1-c1ccc(OC)cc1	-2%
CC(C)COC(=O)c1ccc(NC(=O)C2C3C=CC(C3)C2C(=O)O)cc1 (stereo unspecified)	16%
CCCS(=O)(=O)c1c(S(=O)(=O)CCC)c2ccccn2c1C(=O)OC	?
C[C@H](CCC(=O)NCC(=O)O)[C@H]1CC[C@H]2[C@H]3[C@@H](C[C@@H](O)[C@]12C)[C@]1(C)CC[C@H](O)C[C@@H]1C[C@@H]3O	-4%[25.6 µM]
Cc1nc2cnc(Oc3ccccc3)nc2n(-c2ccccc2)c1=O	-7%

Later entries:
SMILES	HSD17B inh
Nn1c(SCc2cccc3ccccc23)nnc1-c1ccco1	-13%
Cc1nc2cncnc2n(Cc2ccc(F)cc2)c1=O	12%
Cn1c(CCN2CCCCC2)nc2cc(NC(=O)Nc3ccccc3)ccc21	-13%
O=C(NCc1ccccc1)c1c(O)c2cccc3c2n(c1=O)CCC3	-9%
Cn1c(CN2CCN(c3ccc(Cl)cc3)CC2)nc2ccccc21	-2%
COc1ccccc1N1CCN(CC(=O)Nc2c(C)n[nH]c2C)CC1	3%
O=C(O)C1C2C=CC(O2)C1C(=O)NC1CCCc2ccccc21 (stereo unspecified)	-9%
N#CC12C(N)=NC3(OCCO3)C1(C#N)C1=C(CCC1)NC2c1ccccc1 (stereo unspecified)	20µM*
CN(Cc1cc2ccccc2[nH]c1=O)S(C)(=O)=O	0%
CCN1CCN(S(=O)(=O)c2cc(C)c(OC)cc2C)CC1	?
N#Cc1ccc(C23CC4(C2)[C@H](CN(Cc2ccc(-c5ccccc5)cc2)[C@@H]4c2ccccc2)C3c2ccccc2)cc1 (stereo partly specified)	6%
CC(=O)Nc1ccc(S(=O)(=O)NCC2CCC(C(=O)N3CCCCCC3)CC2)cc1 (stereo unspecified)	4%
O=C(Cn1cnc2ccccc21)NCCCN1CCOCC1	11%
CCn1cc(C(=O)N2CCn3c(nc4ccccc43)C2)c(=O)c2ccc(C)nc21	-5%
Nc1ncnc2nc(N3CCN(CCO)CC3)[nH]c12	5%[11.4 µM]
O=C(CN1CCN(c2ccccn2)CC1)Nc1ccc2ccccc2c1	8%
CC(=O)Nc1ccc(N2CCOCC2)c(C(=O)Nc2cccc(C)c2)c1	4%
O=C1N2CCSC2=NC1(Nc1ccccn1)C(F)(F)F (stereo unspecified)	-3%
NC1=NC(c2cn(-c3ccccc3)nc2-c2cccs2)n2c(nc3ccccc32)N1 (stereo unspecified)	-15%
COc1ccc(S(=O)(=O)NCCc2ccc(F)cc2)cc1	2%
CC(=O)Nc1ccc(S(=O)(=O)N2CCN=C2C)cc1	11%
O=C(c1noc2c1CCCCC2)N1CCN(C(c2ccccc2)c2ccccc2)CC1	1%
CC1CCN(Cc2nc3c(c(=O)n(C)c(=O)n3C)n2Cc2c(F)cccc2Cl)CC1	7%
C/C(Nc1cccc(F)c1)=C(/C#N)C(N)=O	13%
O=C(c1ccccc1)N1CCN(C2CC3CCC2C3)CC1 (stereo unspecified)	-5%
Cc1cc(NC(=O)c2ccc(Cn3nc(C)c(Br)c3C)o2)no1	-2%
O=C(NCc1ccc2c(c1)OCO2)c1cc2c(s1)CS(=O)(=O)C2	-1%
CCOC(=O)Nc1cc(OCC)c(NC(=O)C2CC2)cc1OCC	-3%
O=C(c1ccccc1)c1ccc(N2CCOCC2)c(F)c1	-4%
Cc1cc(NC(=O)COC(=O)C2CCCN2C(=O)c2cccs2)no1 (stereo unspecified)	5%
CCN(CC)CCOC(=O)c1cc(Cl)c(N)cc1OC	7%&-3%
COc1ccc(CN2CCC(C(=O)N(C)CCc3ccc(OC)c(OC)c3)CC2)c(OC)c1	-1%
C[N+]1(CCC[N+]2(C)C[C@H]3[C@H](C2)[C@H]2C=C[C@@H]3CC2)CCOCC1 (stereo partly specified)	3%[11.4 µM]
N#CC1=C(SCC(N)=O)NC(=O)CC1c1cccc2ccccc12 (stereo unspecified)	3%
O=C(CSc1nnc(-c2ccc(F)cc2)o1)Nc1ccc(S(=O)(=O)N2CCCCCC2)cc1	4%
Cc1nc2c(C(=O)NCc3ccc4c(c3)OCO4)c[nH]n2c(=O)c1Cc1ccccc1F	32µM*
COc1ccc2oc(=O)c(C(=O)N3CCN(c4ccc(F)cc4)CC3)cc2c1	-8%
COc1ccc(CC(=O)N2CCN(c3ccccn3)CC2)cc1OC	?
O=C(Nc1ccccc1)C1CCN(c2nccs2)CC1	7%
